Rango dissoc inh: inhibition of RanGTP-driven Rango-importin beta dissociation; O95149+P62826; Biochemical FRET Rango-importin beta, RanGTP-induced dissociation; Potency, µM (highest dose often 46.1 µM), for inactives: top-dose activity change, negative = inhibition; 340,000 tested, 0.071% active; AID 540253; active means falling FRET ratio curve, often poorly fitted, with flat reads before Ran was added; inconclusive means other falling curves, or compound fluorescence or quenching; inactive means flat or rising ratio curve;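 also: potency is read from the fitted curve at half-maximal effect; % of control where 0% means no effect; nearly all actives have a fitted effect of over 45% in size; -100% = wells without RanGTP and RCC1; the record marks most hits as doubtful in a second field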
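Rango/importin beta premix (0.1/0.25 uM final), PBS + 1 mM DTT + 0.02% Tween-20 + 0.1% BSA; cpd 5 min RT; FRET pre-read; + RanGTP-RCC1 (0.6 uM Ran, 2 mM GTP, 0.2 uM RCC1); 45 min RT; FRET post-read, ex 430, em 486/530 nm.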
GLA inh pH 4.5: inhibitors of human alpha-galactosidase A at pH 4.5; P06280; purified enzyme, 4-MU-alpha-Gal fluorescence, pH 4.5; activity change, negative = inhibition, % at 105 µM; 230,000 tested, under 10 active; AID 1467; inconclusive = small, poorly fitted or top-dose-only inhibition, or a rising curve; inactive = flat fitted curve, though single readings scatter; no compound was filed as active;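 also: 0% = full activity with enzyme and -100% = basal without enzyme; dose as in the result columns while the protocol names 77 µM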
Rango-impB inh: prevents formation of the Rango-importin beta complex; Q14974; Rango CFP/YFP FRET sensor + importin beta, 45 min; Potency, µM (doses to about 92.2 µM), without a hit: at the top dose inhibition of complex formation; 340,000 tested, 0.031% active; active = rising FRET ratio curve, often small or poorly fitted; inconclusive = mostly compound fluorescence or quenching in the first reads; inactive = flat curves in all reads;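 also: potency is read from the fitted curve at half-maximal effect; 0% = DMSO wells and 100% = buffer wells lacking importin beta; nearly all actives have a fitted effect of over 15% in size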
Target sequence (Q14974 whole entry, looked up): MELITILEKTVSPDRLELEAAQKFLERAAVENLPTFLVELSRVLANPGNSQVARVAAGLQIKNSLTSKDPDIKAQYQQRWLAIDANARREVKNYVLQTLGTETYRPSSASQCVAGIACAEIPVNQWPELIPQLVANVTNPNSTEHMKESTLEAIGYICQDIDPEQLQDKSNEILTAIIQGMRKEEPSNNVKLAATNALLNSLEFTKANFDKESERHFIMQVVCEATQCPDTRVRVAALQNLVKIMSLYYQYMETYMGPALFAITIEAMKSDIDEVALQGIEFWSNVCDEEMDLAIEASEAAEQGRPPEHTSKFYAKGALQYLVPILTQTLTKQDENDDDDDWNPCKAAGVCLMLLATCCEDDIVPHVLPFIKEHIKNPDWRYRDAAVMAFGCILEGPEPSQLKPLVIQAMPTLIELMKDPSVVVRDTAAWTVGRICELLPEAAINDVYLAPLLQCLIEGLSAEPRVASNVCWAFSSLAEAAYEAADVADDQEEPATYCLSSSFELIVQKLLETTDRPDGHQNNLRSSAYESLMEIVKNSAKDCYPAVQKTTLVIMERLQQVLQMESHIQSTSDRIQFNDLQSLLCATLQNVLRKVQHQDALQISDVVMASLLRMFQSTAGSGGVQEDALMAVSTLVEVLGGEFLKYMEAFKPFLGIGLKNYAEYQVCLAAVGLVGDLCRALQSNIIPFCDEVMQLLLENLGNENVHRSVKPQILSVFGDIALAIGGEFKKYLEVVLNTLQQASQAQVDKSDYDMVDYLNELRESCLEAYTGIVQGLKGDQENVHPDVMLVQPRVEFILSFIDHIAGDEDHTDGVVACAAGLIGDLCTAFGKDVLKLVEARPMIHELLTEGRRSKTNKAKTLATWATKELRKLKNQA
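Inhibition scored from the CFP 486 nm/YFP 530 nm FRET ratio 45 min after adding 0.125 microM importin beta to 50 nM Rango biosensor preincubated 5 min with compound (room temperature, PBS with DTT, Tween-20, BSA). No-importin wells as positive control.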
miR-21 FLuc: raises the signal of a miR-21 reporter. Potency, µM (top dose mostly 38.3 µM), without a hit: at the top dose reporter change, positive = more light. 340,000 tested, under 10 active. HeLa miR-21 FLuc reporter, luciferase, 48 h; active = well fitted rising curve with a large enough effect; inconclusive = small, poorly fitted or top-dose-only effect; inactive = no such curve, though single readings can be large or run the other way;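 also: % of control where 0% means no effect; miR-21 action dims this reporter so a rising signal means less miR-21 action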
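HeLa cells endogenously expressing miR-21, stably carrying CMV-driven firefly luciferase with a downstream miR-21 binding site, 2000 cells/well. Titrations up to approximately 40 uM, 48 hours; luciferase luminescence read.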
* = called active by the depositor; ? = inconclusive; / = not tested or not shown; & = joins results of further samples. Not all compounds are listed (hit frequency here may not be typical).

SMILES	Rango dissoc inh	GLA inh pH 4.5	Rango-impB inh	miR-21 FLuc
O=C(CS(=O)c1ccc(C(F)(F)F)cc1[N+](=O)[O-])Oc1ccccc1 (stereo unspecified)	3.0%	1.4	8.0%	?
CCN(CC)S(=O)(=O)c1ccc(NC(=O)Cn2c(=O)oc3ccccc32)cc1	-4.3%	10.9	-1.8%	-7.0%
NC(=O)C1CCN(C(=O)CN2CCc3ccccc32)CC1	14.6%	-6.6	-3.1%	1.8%
COc1ccc(C(=O)/C=C/c2cccs2)c(OC(=O)N2CCOCC2)c1	-0.7%	-5.0	-2.5%	9.3%
C[C@H]1CN([C@@H](C)CO)C(=O)Cc2cc(NC(=O)Cc3cn(C)c4ccccc34)ccc2O[C@@H]1CN(C)S(=O)(=O)c1cn(C)cn1	-1.1%	/	0.0%	/
COc1ccc(NC(=O)C2CCCC2)cc1	-0.6%	/	2.7%	-10.7%
COc1ccc2[nH]cc(CCNC(=O)CC[C@H]3O[C@@H](n4cc(C)c(=O)[nH]c4=O)C[C@@H]3O)c2c1	-3.4%	/	-5.3%	/
NC(=O)CC(NC(=O)Cc1cccc2ccccc12)c1ccc(NC2CCCCCCC2)c([N+](=O)[O-])c1 (stereo unspecified)	19.4%	0.6	-0.7%	8.3%
S=C(c1cccs1)N1CCN(c2ccccc2)CC1	-4.6%	/	-0.7%	/
COc1cc2c(cc1OC)C(c1cccs1)N(C(=O)c1ccc(S(=O)(=O)N(C)C)cc1)CC2 (stereo unspecified)	-17.0%	-1.0	0.1%	0.9%
O=C1c2c(O)cccc2Cc2cccc(O)c21	?	-5.5	-1.5%	/
Oc1ccc(-c2nnc(SCc3ccccc3)o2)cc1	6.9%	/	4.9%	-39.2%
O=C(CCc1nc2ccccc2c(=O)[nH]1)NCCN1C(=O)S/C(=C\c2ccc(Cl)cc2Cl)C1=O	?	/	?	/
Cc1ccc(NC(=O)C2CCCN(c3ncnc4c3nc3n4CCCCC3)C2)nc1 (stereo unspecified)	-11.0%	/	0.7%	0.9%
CCOC(=O)C1CCN(C(C(=O)Nc2ccc3c(c2)OCCO3)c2ccccc2)CC1 (stereo unspecified)	3.6%	1.4	1.8%	-7.1%

6 entries from above, arranged by their value in miR-21 FLuc, lowest first.
SMILES	Rango dissoc inh	GLA inh pH 4.5	Rango-impB inh	miR-21 FLuc
Oc1ccc(-c2nnc(SCc3ccccc3)o2)cc1	6.9%	/	4.9%	-39.2%
COc1ccc(NC(=O)C2CCCC2)cc1	-0.6%	/	2.7%	-10.7%
CCN(CC)S(=O)(=O)c1ccc(NC(=O)Cn2c(=O)oc3ccccc32)cc1	-4.3%	10.9	-1.8%	-7.0%
Cc1ccc(NC(=O)C2CCCN(c3ncnc4c3nc3n4CCCCC3)C2)nc1 (stereo unspecified)	-11.0%	/	0.7%	0.9%
NC(=O)CC(NC(=O)Cc1cccc2ccccc12)c1ccc(NC2CCCCCCC2)c([N+](=O)[O-])c1 (stereo unspecified)	19.4%	0.6	-0.7%	8.3%
COc1ccc(C(=O)/C=C/c2cccs2)c(OC(=O)N2CCOCC2)c1	-0.7%	-5.0	-2.5%	9.3%

Remaining list, next part.
SMILES	Rango dissoc inh	GLA inh pH 4.5	Rango-impB inh	miR-21 FLuc
COc1ccc(N2CCN(C(CNC(=O)C(=O)NCCCO)c3ccco3)CC2)cc1 (stereo unspecified)	0.2%	/	1.7%	1.0%
O=C1CC(N2CCOCC2)C(=O)N1c1cccc(Cl)c1 (stereo unspecified)	-7.9%	-3.5	0.3%	0.3%
CCN(CC(=O)Nc1cccc(S(=O)(=O)N2CCOCC2)c1)Cc1ccccc1	-2.8%	/	-0.5%	/
CN1CCc2ccccc2C1C1CCNCC1 (stereo unspecified)	12.7%	2.2	-0.9%	-2.0%
COc1ccc(OC)c(NC(=O)C2CCN(C(=O)C3CC(=O)N(c4ccc(C)cc4)C3)CC2)c1 (stereo unspecified)	?	/	-3.7%	0.0%
N=C(N)SCc1ccc(Cl)c2ccccc12	-0.6%	/	-2.7%	/
Cc1nn(CCc2nc(-c3ccco3)cs2)c2[nH]c(=O)cc(C(F)(F)F)c12	-3.9%	2.1	1.7%	-0.9%
CN(c1ccccc1)S(=O)(=O)c1ccc(C(=O)NCC(c2ccco2)N2CCCCC2)cc1 (stereo unspecified)	-11.1%	/	-0.1%	/
CCN(C(=O)COC(=O)c1cccnc1Nc1ccccc1F)C1CCS(=O)(=O)C1 (stereo unspecified)	5.9%	1.6	0.1%	-39.5%
COc1ccc(OC)c(NC=C2C(=O)OC(C)(C)OC2=O)c1	?	-0.5	?	1.7%
C=CCOc1ccc2c(c1)c(S(=O)(=O)c1ccc(C)cc1)cn2COC	1.1%	-5.6	-1.2%	0.4%
CCOc1ccc(S(=O)(=O)N2CCOCC2)cc1NC(=O)Cc1c(F)cccc1Cl	-2.4%	/	-1.5%	/
Cc1ccc(NCCC(=O)c2cccc([N+](=O)[O-])c2)cc1	-1.8%	-4.5	-0.4%	-11.8%
CC1CCN(S(=O)(=O)N2CCC(C(=O)NCCN3CCOCC3)CC2)CC1	-2.0%	3.1	4.6%	-0.6%
Cc1ccc(C(C)C)c(OCCn2c(=O)oc3ccccc32)c1	-2.8%	-2.1	2.7%	-5.8%
O=C1C=CC(=O)N1CCCCCCCCCCN1C(=O)C=CC1=O	-11.0%	/	0.9%	/
Cc1ccc(C)c(S(=O)(=O)C(C#N)c2nc3ccccc3nc2N2CC(C)OC(C)C2)c1 (stereo unspecified)	?	-8.0	?	-0.4%
CC1C=CCC2C(=O)N(c3cccc(C(=O)N4CCN(c5ccc(F)cc5)CC4)c3)C(=O)C12 (stereo unspecified)	-15.2%	-7.3	1.7%	-29.8%
CCOc1ccc(C(=O)NCC(c2cccs2)N(C)C)cc1OCC (stereo unspecified)	-2.6%	0.7	-1.0%	-12.2%
COc1cc(C2C3=C(CCCC3=O)Nc3c2c(C)nn3-c2cccc(C)c2)cc(OC)c1O (stereo unspecified)	-12.1%	-8.6	-1.9%	-7.6%
CC1(c2ccc(Cl)cc2)NC(=O)N(CC(=O)NCc2ccc(F)cc2)C1=O (stereo unspecified)	3.1%	/	3.4%	14.3%
CCOc1ccc(N(C(C)C(=O)N2CCCCCC2)S(C)(=O)=O)cc1 (stereo unspecified)	-1.9%	/	0.7%	-0.6%
CC1CCCCN1C(=O)CSc1nc(N)nc(N)n1 (stereo unspecified)	?	/	1.4%	/
CN1C(=O)/C(=C2\SC(N3CCCCCC3)=NC2=O)c2ccccc21	21.9%	-6.6	0.2%	-41.6%
CSc1nc(Oc2ccc(F)cc2)c2ccccc2n1	13.9%	-27.0	5.9%	-6.3%
Cc1cccc(N2CCN(C(=O)c3nn(C)c4c3CS(=O)(=O)c3ccccc3-4)CC2C)c1 (stereo unspecified)	2.1%	/	4.4%	-1.6%&-2.5%
CCn1cnc2c1c(=O)n(CC(=O)NCC(F)(F)F)c(=O)n2Cc1ccccc1	7.9%	4.7	-2.7%	-1.8%
NC(=O)CSc1nnnn1-c1cccc(Cl)c1	26.8%	15.4	2.0%	0.0%
O=C(COC(=O)CN1C(=O)NC2(CCCC2)C1=O)Nc1ccc(C(F)(F)F)cc1[N+](=O)[O-]	-2.8%	/	2.0%	/
COc1ccc(C(=O)OCC(=O)c2ccc(CNC(C)=O)s2)cc1	0.7%	/	4.4%	/
CC(C)OCCCn1c(=N)c(C(N)=S)cc2c(=O)n3ccccc3nc21	?	-4.6	?	-1.7%
COc1ccc(S(=O)(=O)N2CCCC2C(=O)Nc2nccs2)cc1 (stereo unspecified)	-4.8%	7.3	-0.8%	9.4%
COc1ccccc1C(=O)COC(=O)c1cc(S(=O)(=O)N2CCCCC2)ccc1N1CCOCC1	7.9%	/	2.1%	/
COc1cc(SC)ccc1C(=O)Nc1cc(C)c(OCC(=O)N2CCOCC2)c(C)c1	7.6%	/	3.4%	-11.1%
COc1cccc(-n2c(C)nc3c(cnn3-c3ccc(Cl)cc3)c2=O)c1	-2.2%	-1.4	1.0%	-11.8%
Cc1cc(=O)n2nc(N3CCCC(C(=O)NC(C)c4ccccc4)C3)sc2n1 (stereo unspecified)	0.0%	3.4	2.2%	-1.3%
CCCCNC(=O)CSc1nnc(-c2c[nH]c3ccccc23)n1CC1CCCO1 (stereo unspecified)	-11.2%	-4.4	0.6%	-1.5%
Cc1cccc(NC(=O)[C@@H]2CCCN2C(=O)OC(C)(C)C)c1C	-12.3%	/	?	-1.2%
CCOc1ccccc1Nc1nnc(SCC(=O)NC(Cc2c[nH]c3ccccc23)C(=O)O)s1 (stereo unspecified)	12.8%	-2.4	-2.1%	-4.4%
O=C(CN1CCN(Cc2ccccc2)CC1)Nc1nc2ccccc2s1	-2.7%	/	-3.0%	-14.1%
CC(=O)c1ccc(-c2ccc(-c3cc(=O)oc4c(C(C)C)ccc(C)c34)cc2)cc1	?	-11.4	0.4%	/
CCN(CC)S(=O)(=O)c1ccc2oc(C(=O)N3CCCCCC3)c(C)c2c1	0.7%	-6.7	-1.4%	21.0%
O=C(Oc1cc(=O)oc2ccccc12)c1cccnc1Cl	21.8%	1.8	1.4%	-0.3%
Cc1ccc2c(c1)C(=O)C(=O)N2CCOc1ccccc1	-4.5%	-2.9	-0.4%	6.4%
COc1ccc(-c2nc3ccccn3c2/N=C/c2ccc(OC)c(OC)c2)cc1O	?	-5.3	?	-26.1%

Next part (4 carried over from the part before).
SMILES	Rango dissoc inh	GLA inh pH 4.5	Rango-impB inh	miR-21 FLuc
CCN(CC)S(=O)(=O)c1ccc2oc(C(=O)N3CCCCCC3)c(C)c2c1	0.7%	-6.7	-1.4%	21.0%
O=C(Oc1cc(=O)oc2ccccc12)c1cccnc1Cl	21.8%	1.8	1.4%	-0.3%
Cc1ccc2c(c1)C(=O)C(=O)N2CCOc1ccccc1	-4.5%	-2.9	-0.4%	6.4%
COc1ccc(-c2nc3ccccn3c2/N=C/c2ccc(OC)c(OC)c2)cc1O	?	-5.3	?	-26.1%
COc1ccc(CN2CCN(CCCc3ccccc3)CC2)c(OC)c1	/	-9.3	/	2.6%
COc1ccc(OC)c(C(C)NC(C)=O)c1 (stereo unspecified)	-1.1%	6.5	-2.7%	-7.1%
CCN(CC)c1ccc(C(=O)NNC(=O)CCc2nc3ccccc3c(=O)[nH]2)cc1	1.6%	/	-5.5%	-1.9%
CCCC(c1nnnn1C(C)(C)CC)N(CCCO)Cc1cc2cc(C)cc(C)c2[nH]c1=O (stereo unspecified)	2.7%	-21.8	-4.0%	-0.2%
Cc1ccc(C(=O)COC(=O)CN2C(=O)C3C4CCC(C4)C3C2=O)cc1C (stereo unspecified)	-14.4%	/	4.0%	-1.7%
S=c1[nH]nc(-c2cccnc2)n1C1CCCCC1	7.9%	3.5	-5.4%	-7.5%
O=C(CC(C(=O)O)c1cccc(Cl)c1)c1ccccc1 (stereo unspecified)	-6.9%	/	-0.9%	0.0%
CC(C)c1ccc(NC(=O)C2CCCN2S(=O)(=O)c2ccccc2F)cc1 (stereo unspecified)	10.5%	/	-0.5%	/
COc1ccccc1NS(=O)(=O)c1ccc2oc(=S)[nH]c2c1	0.0%	-3.9	2.8%	-0.3%
Cc1ccc(S(=O)(=O)N2CCN(C(=O)CC(C)n3cncn3)CC2)cc1 (stereo unspecified)	0.3%	/	3.9%	-1.1%
O=C(Nc1ccc([N+](=O)[O-])cc1)c1ccccc1	32.0%	/	0.4%	-46.1%
